Arbovirus anti = arbovirus infection inhibition; inhibition, % at 10 µM; hit rate 0.37% among 200,000; arbovirus infection cell-based antiviral screen; AID 1251;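 active = inhibition from about 30%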;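 note: bluetongue infection of BSR cells; cell survival read as ATP light after 72 h; 0% = infected wells without compound and 100% = uninfected wells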
RecA splice inh = inhibitors of M. tuberculosis RecA intein splicing; hit rate 0.75% among 290,000; cell-free RecA intein splicing, fluorescence; P9WHJ3; AID 2221; inhibition, %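 (about 9 µM by stock and volumes)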; in the data active = inhibition above about 30%;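 note: 0% = vehicle wells and 100% = reference inhibitor control wells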
Target sequence (P9WHJ3 whole entry, looked up, canonical isoform): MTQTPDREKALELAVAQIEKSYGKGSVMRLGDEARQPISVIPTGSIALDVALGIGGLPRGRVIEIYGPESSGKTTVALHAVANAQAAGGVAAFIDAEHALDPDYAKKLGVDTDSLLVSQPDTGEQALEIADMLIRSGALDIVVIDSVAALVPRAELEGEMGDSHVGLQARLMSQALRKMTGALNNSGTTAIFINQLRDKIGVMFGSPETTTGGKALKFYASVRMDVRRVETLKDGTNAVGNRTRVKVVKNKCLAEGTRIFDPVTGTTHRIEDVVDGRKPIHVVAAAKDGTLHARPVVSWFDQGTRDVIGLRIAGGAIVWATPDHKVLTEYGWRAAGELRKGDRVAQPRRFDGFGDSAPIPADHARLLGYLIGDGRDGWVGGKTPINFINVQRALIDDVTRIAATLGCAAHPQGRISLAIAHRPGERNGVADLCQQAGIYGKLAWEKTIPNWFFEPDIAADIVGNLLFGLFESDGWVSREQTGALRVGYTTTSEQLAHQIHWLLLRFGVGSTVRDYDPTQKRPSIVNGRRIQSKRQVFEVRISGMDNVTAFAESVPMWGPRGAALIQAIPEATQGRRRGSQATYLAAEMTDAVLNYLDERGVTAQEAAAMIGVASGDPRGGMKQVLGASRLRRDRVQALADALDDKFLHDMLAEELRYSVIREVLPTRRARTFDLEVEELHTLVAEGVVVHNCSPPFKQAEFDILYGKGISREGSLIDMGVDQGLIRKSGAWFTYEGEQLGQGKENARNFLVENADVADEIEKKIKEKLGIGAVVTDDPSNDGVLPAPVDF
Mtb growth = M. tuberculosis H37Rv growth inhibitors, H37Rv strain (AID 1626). hit rate 0.95% among 220,000. M. tuberculosis H37Rv growth inhibition; higher % means a stronger effect. inhibition, % at 10 µM; hits with a dose series show IC50 in µM;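 active = confirmed in a dose series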;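 note: bacteria incubated seven days before Alamar blue readout; 0% = bacteria only wells and 100% = bacteria with antibiotic wells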
Mtb betalactam = beta-lactam sensitization of Mtb H37Rv; hit rate 0.27% among 330,000; M. tuberculosis H37Rv growth with meropenem, percent inhibition; hits of this screen are not shown here; AID 434955; inhibition, % at 25 µM;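 active = about 74% or more and at least 40 points above the plate without the antibiotic, then above 30% in a dose series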;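 note: growth measured after seven days incubation then overnight dye step; 0% = bacteria only wells and 100% = bacteria with antibiotic; twin plates without the antibiotic show which effects depend on it; some results filed as inactive read as strong as hits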
YopH inh = YopH (Yersinia) phosphatase inhibition; inhibition, %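 (about 10 µM by stock and volumes)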; AID 898; hit rate 0.16% among 140,000; fluorescence Ex485/Em525;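 active = inhibition of 50% or more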;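 note: controls were vehicle for no effect and minimum signal wells for full effect; inactives centre near -20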
Arbovirus anti repeat = second read-out of Arbovirus anti, no call of its own (marks repeat the call); inhibition, %; measured here: 10K subset replicate screen; many hits read low in the repeat;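 first of two repeat runs on a subset; 0% = infected and 100% = uninfected wells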
* marks the source's active call; other numbers are inactive results; / = no result given. Not all compounds are listed; count on the stated rates, not on these rows.

SMILES | Arbovirus anti | RecA splice inh | Mtb growth | Mtb betalactam | YopH inh | others
O=c1c2ccccc2c(C=Nc2cccc(S(=O)(=O)NC3=NCCCCC3)c2)c(O)n1Cc1ccccc1 | / | 2.2 | 12% | 52 | /
Cc1cccc(NC(=S)Nc2ccc(N3CCOCC3)cc2)c1C | -8 | -5.5 | 9% | 32 | 1
Cc1cc(=O)oc2cc(NC(=O)c3c(Cl)cnn3C)ccc12 | / | 0.4 | / | 0 | /
CCOC(=O)c1c(NC(=O)C2CCN(S(=O)(=O)c3cccs3)CC2)sc(C)c1C | -9 | 26 | -10% | 16 | -26
Cc1cc(/C=N/NC(=O)C(O)(c2ccccc2)c2ccccc2)c(C)n1-c1cccc(C(=O)O)c1 | / | 3.5 | -7% | -6 | /
COc1ccc(C(=O)N/N=C/c2ccc(OC)c(COc3ccc(F)cc3)c2)cc1 | / | -0.7 | / | 1 | /
O=C(NC1CCCN(Cc2ccccc2F)C1)c1cccs1 (stereo not given) | / | -4.8 | / | -8 | /
COc1ccc(NC(=O)C2(S(=O)(=O)c3ccc(C)cc3)CC2)cc1 | / | 0.4 | / | -4 | /
CN(c1ccccc1C(=O)NCC1CCCO1)S(C)(=O)=O (stereo not given) | 2 | 0.9 | -12% | 4 | -8
COc1ccc(CCn2c(O)c(/C=N/N3CCOCC3)c(=O)[nH]c2=O)cc1OC | / | -1.0 | -10% | -5 | /
COc1ccc(NC(=O)Cn2nnc(-c3ccccc3NC(=O)c3ccco3)n2)cc1 | -18 | 1.0 | -3% | 0 | -28
COc1cccc(CNc2cc(C)ccn2)c1O | / | -12 | / | -11 | /
CCCOc1ccc(C(=O)CCN2CCN(C(=O)OCC)CC2)cc1 | 3 | / | 2% | / | /
CCN(CC)CCSc1nnc2c3ccccc3n(Cc3ccccc3)c2n1 | / | 3.3 | 11% | -5 | /
O=C(CN(c1ccccc1)S(=O)(=O)c1ccc(F)cc1)NC1CCCCCC1 | / | -1.7 | / | -13 | /
CCCCCCOc1ccc(N2C(=O)CC(SC(=NCC)NCC)C2=O)cc1 (stereo not given) | 0 | 1.6 | -3% | 16 | /
O=C(O)c1cccnc1SCC(=O)C12CC3CC(CC(C3)C1)C2 | / | 2.7 | -11% | 0 | /
Cc1n[nH]c(C)c1CCCCOc1ccccc1 | 4 | / | -3% | 90 | /
COc1ccc(C)cc1NC(=O)c1nn(C)cc1Br | / | -1.8 | 2% | 2 | /
CC(=O)Nc1cccc(NC(=O)CCN2C(=O)c3ccccc3S2(=O)=O)c1 | / | -2.1 | / | -21 | /
CN1CCN(CC(=O)Nc2sc3c(c2C(=O)Nc2ccccc2)CCCC3)CC1 | / | 0.1 | / | 2 | /
O=C(CSc1nc2cc3ccccc3cc2[nH]1)Nc1ccc(F)cc1 | 7 | 3.1 | 1% | 4 | -11
COC(=O)c1c(S(N)(=O)=O)c2ccccc2n1C | 12 | 4.6 | 1% | 1 | -35 | Arbovirus anti repeat=7
COCCNC(=O)CN1N=C(c2ccc(C)cc2)CCC1=O | / | 0.4 | / | -2 | /
C=CCc1ccc(OCCCCCN2CCOCC2)c(OC)c1 | -18 | 2.4 | -1% | -12 | -1
CCOc1nc(N2CCOCC2)nc(N2CCOCC2)n1 | -2 | 1.8 | -13% | -3 | /
CC(C)(C)NC(=O)CN(C(=O)c1csnn1)c1cccc2c1CCCC2 | 0 | 1.6 | 5% | 1 | /
Cc1cc(NC(=O)/C=C/c2ccccc2Cl)no1 | -21 | -0.2 | 2% | 3 | -24
O=C(CNC(=O)c1ccco1)OCc1cccc(Cl)c1 | 1 | 0.0 | -1% | 1 | -38
Cc1cccc(-c2noc(CCC(=O)NCC3CCCO3)n2)c1 (stereo not given) | 7 | 0.1 | -8% | -4 | -12
CC1CCCC(C)N1C(=O)CSc1nnc(COc2cccc3cccnc23)o1 (stereo not given) | 9 | -3.3 | -1% | -11 | /
CC(C)(C)NC(=O)CSc1ncnc2c1nnn2Cc1ccccc1Cl | -43 | 61* | 13% | 61 | -51
O=C(NCc1ccc(F)cc1)c1cccc(NC2=NC3CS(=O)(=O)CC3S2)c1 (stereo not given) | / | -0.6 | / | -3 | /
Cc1ccccc1NC(=O)Cc1ccccc1 | 3 | -1.9 | -7% | -12 | -12
NCCc1nnc(SCc2ccccc2F)o1 | 4 | 1.7 | -4% | 4 | -26
Cc1cccc(C)c1NC(=O)CNC(=O)Cc1ccccc1[N+](=O)[O-] | / | -1.3 | / | -4 | /
CCOC(=O)C1CCN(C(=O)c2sccc2Cl)CC1 | / | -0.7 | -10% | 1 | /
N#Cc1ccccc1Cn1c(=O)n(-c2ccc(CC(=O)NCc3ccco3)cc2)c(=O)c2sccc21 | 5 | -1.5 | 2% | -2 | -23 | Arbovirus anti repeat=2
CSCC[C@H](NC(=O)CCn1nnc2ccccc2c1=O)C(=O)O | 2 | -1.5 | -1% | -6 | -42
CC(=O)c1cnc2cc(-c3ccc(Cl)cc3)nn2c1C | 15 | 2.0 | 9% | 0 | -20
Cc1cc(C)n2nc(SC(C)C(=O)NC3CCCCC3C)nc2n1 (stereo not given) | / | -6.3 | / | -6 | /
CCOC(=O)c1ccc(CSc2ncn[nH]2)o1 | 4 | 2.9 | -10% | 6 | -17
O=C(CSc1nc2ccccc2s1)NCC1CCCO1 (stereo not given) | / | 0.7 | / | -9 | /
Cc1ccc(C)n1NC(=O)c1ccc(O)cc1 | 1 | -2.8 | -9% | -1 | -5
O=C(CSc1ccccc1)Nc1ccc(N2CCN(c3ccccc3)CC2)c(F)c1 | -11 | -1.3 | 4% | -7 | -45

An excerpt from above in order of SMILES length, ascending.
SMILES | Arbovirus anti | RecA splice inh | Mtb growth | Mtb betalactam | YopH inh | others
NCCc1nnc(SCc2ccccc2F)o1 | 4 | 1.7 | -4% | 4 | -26
Cc1ccccc1NC(=O)Cc1ccccc1 | 3 | -1.9 | -7% | -12 | -12
Cc1ccc(C)n1NC(=O)c1ccc(O)cc1 | 1 | -2.8 | -9% | -1 | -5
O=C(CSc1nc2ccccc2s1)NCC1CCCO1 (stereo not given) | / | 0.7 | / | -9 | /
CCOc1nc(N2CCOCC2)nc(N2CCOCC2)n1 | -2 | 1.8 | -13% | -3 | /
C=CCc1ccc(OCCCCCN2CCOCC2)c(OC)c1 | -18 | 2.4 | -1% | -12 | -1
O=C(CNC(=O)c1ccco1)OCc1cccc(Cl)c1 | 1 | 0.0 | -1% | 1 | -38
CC(=O)c1cnc2cc(-c3ccc(Cl)cc3)nn2c1C | 15 | 2.0 | 9% | 0 | -20
Cc1cccc(-c2noc(CCC(=O)NCC3CCCO3)n2)c1 (stereo not given) | 7 | 0.1 | -8% | -4 | -12
Cc1cc(C)n2nc(SC(C)C(=O)NC3CCCCC3C)nc2n1 (stereo not given) | / | -6.3 | / | -6 | /
CC(C)(C)NC(=O)CSc1ncnc2c1nnn2Cc1ccccc1Cl | -43 | 61* | 13% | 61 | -51
CSCC[C@H](NC(=O)CCn1nnc2ccccc2c1=O)C(=O)O | 2 | -1.5 | -1% | -6 | -42
CC(C)(C)NC(=O)CN(C(=O)c1csnn1)c1cccc2c1CCCC2 | 0 | 1.6 | 5% | 1 | /
Cc1cccc(C)c1NC(=O)CNC(=O)Cc1ccccc1[N+](=O)[O-] | / | -1.3 | / | -4 | /
O=C(CSc1ccccc1)Nc1ccc(N2CCN(c3ccccc3)CC2)c(F)c1 | -11 | -1.3 | 4% | -7 | -45
O=C(NCc1ccc(F)cc1)c1cccc(NC2=NC3CS(=O)(=O)CC3S2)c1 (stereo not given) | / | -0.6 | / | -3 | /
N#Cc1ccccc1Cn1c(=O)n(-c2ccc(CC(=O)NCc3ccco3)cc2)c(=O)c2sccc21 | 5 | -1.5 | 2% | -2 | -23 | Arbovirus anti repeat=2

More records:
SMILES | Arbovirus anti | RecA splice inh | Mtb growth | Mtb betalactam | YopH inh | others
CN(C)c1ccc(C(=O)OCC(=O)c2cccs2)cc1 | 2 | -2.0 | -4% | -1 | -9
CCOC(=O)N1CCN(C(=O)CSCC(=O)Nc2nc(-c3ccccc3)cs2)CC1 | 10 | -0.4 | 29% | -6 | -8
CCN1CCN(C(=O)COc2ccc(S(=O)(=O)Nc3ccc(Cl)cc3)cc2)CC1 | / | 0.8 | / | 1 | /
CCCOC1CCCN(C(=O)CCCn2nnnc2CN2CCOCC2)C1 (stereo not given) | / | 1.4 | / | 6 | /
Cc1nn(C(C)C(=O)NCc2ccccc2)c(C)c1[N+](=O)[O-] (stereo not given) | -1 | / | -9% | 6 | -34
O=c1c(Cc2ccccc2)c(O)c2cccc3c4c(n1c23)CCCC4 | / | 3.5 | -11% | -11 | /
O=C(CCCCCn1c(=S)[nH]c2ccc(N3CCOCC3)cc2c1=O)NCc1ccccc1Cl | -15 | -9.9 | 4% | 0 | /
COc1ccc(-c2cc3ccccc3n2CC(O)CN2CCC(C)CC2)cc1 (stereo not given) | 21 | 3.9 | 10% | 26 | /
COc1ccc(C2CC(c3cccs3)=NN2C(=O)c2ccc(Br)o2)cc1 (stereo not given) | 0 | -2.4 | 5% | 9 | -7
COc1ccc(C2(C)NC(=O)N(CC(=O)Nc3ccc(Br)cc3F)C2=O)cc1OC (stereo not given) | / | -1.5 | / | -1 | /
Cc1ccc(S(=O)(=O)NC2CCCCCCC2)cc1 | / | 3.3 | / | 0 | /
CCCCN(C(=O)COc1ccc(NC(C)=O)cc1)C1CCS(=O)(=O)C1 (stereo not given) | 4 | -2.0 | 4% | -1 | /
CC(C)N(C(=O)c1ccccc1-c1ccccc1)C(C)C | -8 | 1.3 | -5% | -13 | -9
CCC(Oc1ccccc1OC)C(=O)Nc1ccc2c(c1)OCCO2 (stereo not given) | / | -0.3 | / | 3 | /
Cc1cc(=O)oc2c1ccc1oc(/C(=N/O)c3ccccc3)c(C)c12 | 17 | 6.7 | -7% | -6 | -104 | Arbovirus anti repeat=0
Cc1ccccc1N1CCN(C(=O)C2CCCCC2)CC1 | -4 | 1.2 | 8% | -2 | 5
O=C(Nc1cc2c3c(c1)CC(=O)N3CCC2)c1ccccc1F | / | 9.6 | / | -2 | /
CCN(CC(=O)NCc1ccc(Cl)cc1)S(=O)(=O)c1ccc(NC(C)=O)cc1 | 5 | -2.9 | 1% | -8 | /
O=C(NCc1cccnc1)C1CCN(C(=O)c2ccc(Cl)cc2Cl)CC1 | 0 | 1.5 | -2% | 1 | -24
Cc1ccc(CNC(=O)CS(=O)(=O)Cc2nc(-c3ccccc3F)oc2C)cc1 | / | -0.5 | / | 3 | /
CCc1nnc(NC(=O)COc2ccc3c(c2)OCO3)s1 | / | -2.5 | / | 6 | /
O=C(Nc1ccc(F)cc1)C1C2CCC3C(CCC21)C3(Cl)Cl (stereo not given) | / | 0.5 | -10% | -6 | /
O=C(NNC(=O)c1ccc([N+](=O)[O-])cc1)c1ccc(Br)cc1 | / | 5.9 | / | 2 | /
CC(=O)N1N=C(c2ccc(Cl)cc2)CC1c1ccco1 (stereo not given) | / | -2.0 | -5% | 2 | /
Cc1ccc(-c2nc3cnccn3c2Nc2ccc3c(c2)OCO3)o1 | -5 | -1.6 | 9% | -6 | -21 | Arbovirus anti repeat=1
Cc1ccc(S(=O)(=O)Oc2ccc(/C=C3/N=C(c4ccccc4)OC3=O)cc2)cc1 | -2 | -1.4 | -7% | 73 | -2
Cc1ccc(C(C)C)c(OCC(O)CN2CCOCC2)c1 (stereo not given) | 11 | 1.0 | 20% | -1 | -39
COc1ccccc1-n1nnnc1SCC(=O)Nc1ccc(C)c(N)c1 | / | -0.9 | / | -2 | /
CCOC(=O)C1(CC2CC2)CCN(S(=O)(=O)/C=C/c2ccccc2)CC1 | 6 | 10 | -13% | 3 | /
Cc1nn2c(N3CCN(C)CC3)cc(C(C)(C)C)nc2c1-c1ccccc1 | / | 9.3 | 3µM* | 100 | /
COc1ccc(C2C(=O)N(C3CCCCC3)CC(=O)N2Cc2ccco2)cc1 (stereo not given) | 0 | 0.5 | -3% | -9 | -26

Source: PubChem BioAssay (several laboratories)
